UCH37 inh: human UCH37 deubiquitinating enzyme inhibition | Q9Y5K5 | purified proteasome/UCH37, Ub-AMC cleavage fluorescence | inhibition, % (no concentration beside the values) | 330,000 compounds, 0.33% hits;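 active = mean of two replicates above 20%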;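 note: 0% = compound-free wells with enzyme and 100% = wells lacking proteasome; stock transfer was 100 nL into about 20 µL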
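Material: human UCH37 enzyme supplied as purified proteasome complex / Amount: 0.15 nM proteasome as dispensed / Buffer or medium: pH 7.4 Tris-HCl (50 mM) with ovalbumin, ATP-MgCl2, DTT / Times: preincubation 30 min, reaction 25 min, room temperature / Technique: AMC fluorescence from Ub-AMC cleavage, excitation 355 nm, emission 460 nm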
HNF4A DNA FP: change in binding of human HNF4 alpha to DNA; activity change, % at 10 µM; AID 1224865; 360,000 compounds, 0.3% hits; P41235; HNF4a-FITC DNA binding, fluorescence polarization, 1 h; in the data active = activity change above about 30%, passing the limit was not always enough;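 note: controls were the assay level and a saturating level of protein; the project sought stronger binding though the title names inhibitors; some compounds called inactive have numbers as strong as hits; positive values seem to mean higher polarization but the record does not say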
Target sequence (P41235 whole entry, looked up): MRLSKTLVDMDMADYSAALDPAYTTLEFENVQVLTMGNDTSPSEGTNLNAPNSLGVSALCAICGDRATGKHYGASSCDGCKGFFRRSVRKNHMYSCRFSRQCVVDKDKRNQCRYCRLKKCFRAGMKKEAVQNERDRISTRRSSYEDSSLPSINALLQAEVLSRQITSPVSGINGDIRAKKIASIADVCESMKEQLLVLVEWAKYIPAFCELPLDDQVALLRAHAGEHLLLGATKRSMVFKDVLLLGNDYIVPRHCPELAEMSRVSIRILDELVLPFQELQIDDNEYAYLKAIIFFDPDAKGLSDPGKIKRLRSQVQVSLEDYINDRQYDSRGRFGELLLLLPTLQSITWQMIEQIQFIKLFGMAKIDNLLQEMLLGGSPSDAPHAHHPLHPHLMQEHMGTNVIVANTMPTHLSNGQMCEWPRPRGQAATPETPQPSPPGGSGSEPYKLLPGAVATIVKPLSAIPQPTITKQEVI
Ecoli growth: E. coli growth inhibition; Escherichia coli growth, OD600, 23 h; active compounds read low; OD600 absorbance (concentration not given with the values); 330,000 compounds, 0.21% hits; AID 1053175;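 active = OD600 absorbance below the run mean of sample wells minus 3.6 SD, in any replicate, cut at about 0.56 in these data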;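 note: stock transfer was 300 nL into about 60 µL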
LANA-H2B inh: blocks KSHV LANA binding to histone H2A/H2B. Q9QR71. cell-free LANA-H2A/H2B peptide, fluorescence polarization. inhibition, % (no concentration beside the values). 320,000 compounds, 0.6% hits. AID 2629; in the data active = inhibition mostly above about 10%, no sharp cut-off; inactive = mostly below about 6.7%;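 note: stock transfer was 7.5 nL into about 10 µL; 0% = median of vehicle wells and 100% = median of positive control wells; one replicate is shown; the record names a cut of 25% in any replicate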
A1 inh: inhibitors of the anti-apoptotic protein A1, read as caspase activation; 330,000 compounds, 0.066% hits; caspase activation, % (test concentration not listed); MEF A1-2A-BIM cells, Caspase-Glo 3/7 luminescence, 3 h; percent of clofoctol response, vehicle zero;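 active = over half of replicate activation scores above 10%, or exactly half above 10 with the replicate mean above 10; inconclusive = replicate mean below 10 yet half the replicates above 10; inactive = over half of replicates below 10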;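 note: wells of about 30 µL received 50 nL stock; many hits fall short of the cut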
Beta2AR agonist: agonists of human beta-2 adrenergic receptor inducing internalization | P07550 | 340,000 compounds, 0.43% hits | response, % (no concentration beside the values) | Am2.2-beta2AR cells, FAP receptor internalization, flow cytometry; reference of the scale not given here | AID 504454;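 active = response above a set limit, near 3 SD of response in nonfluorescent compounds, cut at about 42% in these data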;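 note: stock transfer was 100 nL into about 11 µL; a reference agonist was the positive control; negative values mostly stem from fluorescent compounds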
Target sequence (P07550 whole entry, looked up): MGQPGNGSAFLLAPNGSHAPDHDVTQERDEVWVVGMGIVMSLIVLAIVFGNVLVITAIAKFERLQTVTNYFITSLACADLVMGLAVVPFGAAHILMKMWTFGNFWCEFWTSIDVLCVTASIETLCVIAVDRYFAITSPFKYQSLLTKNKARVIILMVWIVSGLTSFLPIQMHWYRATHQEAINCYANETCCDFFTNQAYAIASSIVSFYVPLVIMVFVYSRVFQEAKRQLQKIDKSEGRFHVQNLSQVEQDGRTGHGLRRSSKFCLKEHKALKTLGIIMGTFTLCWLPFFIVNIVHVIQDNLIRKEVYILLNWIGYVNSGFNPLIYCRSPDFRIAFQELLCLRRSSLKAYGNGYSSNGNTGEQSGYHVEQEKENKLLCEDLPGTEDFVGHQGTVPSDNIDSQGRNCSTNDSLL
Vif A3G: HIV-1 Vif–A3G interaction blockers – biochemical, TR-FRET, GST-Vif 1-94, biotin-A3G peptide, dose response retest, primary screen (AID 1117319); TR-FRET GST-Vif / biotin-A3G peptide binding; higher % means a stronger effect; test concentration not given here; strong numbers were not always called active; inhibition, %; hits with a dose series show IC50 in µM; 260,000 compounds, 0.57% hits;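 active = above the screen mean plus three standard deviations and confirmed in dose response; inconclusive = results disagree or hit not tested in dose response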;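 note: Vif residues 1-94 fused to GST binding biotinylated APOBEC3G peptide 110-148; 0% = full assay without inhibitor and 100% = GST in place of GST-Vif; retest series ran down from 100 µM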
Starred values were filed as active, the others as inactive; ? = inconclusive; . = not tested or not shown. Random draw from the library; any-hit rate near 2.1%.

SMILES	UCH37 inh	HNF4A DNA FP	Ecoli growth	LANA-H2B inh	A1 inh	Beta2AR agonist	Vif A3G
CCOc1ccccc1CNc1nc2nc3c(c(=O)n2[nH]1)CCC3	4.0	2.0	0.75	2.0	0.6	-14	-3%
Cc1cccc(N2CCN(Cc3cc(=O)n4ccsc4n3)CC2)c1C	2.6	-9.1	0.69	-1.0	-0.2	2	12%
COc1cc(Cc2ccc(N)c(OC)c2)ccc1N	0.2	5.0	0.7	4.5	0.7	13	18%
COc1ccc(NS(=O)(=O)c2ccc3c(c2)NC(=O)CC(=O)N3)cc1OC	2.3	-2.1	0.66	0.6	-0.2	-1	.
Cc1ccc(SCC(=O)n2nc(C)cc2C)cc1	0.5	-1.4	0.69	-7.8	0.2	1	-1%
COc1ccc(C(=O)Nc2cc(OC)cc3cccnc23)cc1	-31	-0.5	0.68	3.8	0.3	-6	-4%
COc1cccc2sc(Nc3nc(-c4ccncc4)cs3)nc12	5.6	1.3	0.71	-2.0	0.4	26	28%
CCCC(=O)Nc1ccc(Cl)c(NC(=O)c2ccc([N+](=O)[O-])cc2Cl)c1	2.7	-2.8	0.7	-2.7	-0.7	-25	.
CC(=O)c1ccc(S(=O)(=O)NC2CC(=O)N(c3cccc(F)c3)C2)cc1 (stereo not drawn)	4.8	3.2	0.63	1.9	0.0	-2	1%
COc1ccc(NC(=S)N(CCN(C)C)Cc2cccs2)cc1	-0.2	3.5	0.67	-6.3	-0.1	11	.
Cc1cc(=O)[nH]c(SCC(=O)Nc2ccccc2[N+](=O)[O-])n1	4.9	3.8	0.66	1.2	1.7	-2	18%
Cc1sc(NC(=O)c2ccco2)c(C(Nc2ccccn2)c2ccccc2)c1C (stereo not drawn)	-3.0	1.7	0.69	2.3	0.3	11	.
Cc1ccc(S(=O)(=O)N2CCN(C(=O)N(C)C)CC2)cc1C	3.6	-0.8	0.68	2.4	0.1	2	-4%
Cc1ccc(N(CN2CCCC2=O)C(=O)c2ccc(OC(C)C)cc2)cc1	0.7	1.1	0.69	-9.3	-0.2	-3	2%
O=C(O)c1ccc2c(c1)C(=O)N(c1ccc(C(=O)OCC(=O)c3ccccc3)cc1)C2=O	3.3	1.6	0.67	-4.7	-1.8	-3	.
O=C(O)c1ccc(CNCc2cccc(OCc3ccc(F)cc3)c2)cc1	1.8	-2.2	0.67	6.7	0.5	0	-3%
CC(C)(C)N1C(=O)[C@H]2[C@@H](c3ccc(Br)cc3)N3C(=O)N(c4cccc(Br)c4)C(=O)[C@@]3(Cc3ccccc3)[C@H]2C1=O	1.4	-3.8	.	-7.0	0.3	-1	.
OCCC1CN(Cc2cccc(OC3CCCC3)c2)CCN1Cc1ccsc1 (stereo not drawn)	-1.2	-3.1	0.63	-3.0	0.1	-13	7%
O=c1cc(NCc2ccccc2)nc2ccccn12	-2.0	3.1	0.59	2.4	-1.3	-10	-3%
Cc1ccc(S(=O)(=O)CC2CSc3nc(N)cc(=O)n32)cc1 (stereo not drawn)	1.0	2.3	0.67	2.3	0.1	-4	0%
Cc1ccc2c(c1)N(C(=O)CCC(=O)NCc1cccnc1)CCO2	3.1	-3.7	0.7	-4.8	0.0	-5	.
CC(C)NC(=O)N(C)C[C@H]1Oc2c(NC(=O)Nc3ccccc3)cccc2C(=O)N([C@H](C)CO)C[C@@H]1C	4.2	-0.8	.	-1.3	0.1	0	.
CCC1C/C(=C\c2cccnc2)C(=O)/C(=C/c2cccnc2)C1 (stereo not drawn)	6.6	1.4	0.67	.	.	12	9%
CC(=O)N1c2ccc(S(=O)(=O)N3CCCC(C(=O)Nc4cccc(F)c4)C3)cc2CC1C (stereo not drawn)	1.8	0.3	0.73	-0.3	-0.3	8	.
O=C(Nc1ccon1)c1sc2cc(F)ccc2c1Cl	4.3	0.9	0.76	-2.8	-2.7	-8	-33%

The final three compounds of the part above are carried over, then new ones follow:
SMILES	UCH37 inh	HNF4A DNA FP	Ecoli growth	LANA-H2B inh	A1 inh	Beta2AR agonist	Vif A3G
CCC1C/C(=C\c2cccnc2)C(=O)/C(=C/c2cccnc2)C1 (stereo not drawn)	6.6	1.4	0.67	.	.	12	9%
CC(=O)N1c2ccc(S(=O)(=O)N3CCCC(C(=O)Nc4cccc(F)c4)C3)cc2CC1C (stereo not drawn)	1.8	0.3	0.73	-0.3	-0.3	8	.
O=C(Nc1ccon1)c1sc2cc(F)ccc2c1Cl	4.3	0.9	0.76	-2.8	-2.7	-8	-33%
CC(=O)c1cnn(-c2c(Cl)cc(Cl)cc2Cl)c1C	1.8	1.9	0.65	8.1	0.1	13	33%
CC(C)=CCC[C@](C)(O[C@@H]1O[C@H](CO[C@@H]2OC[C@H](O[C@@H]3OC[C@@H](O)[C@H](O)[C@H]3O)[C@H](O)[C@H]2O)[C@@H](O)[C@H](O)[C@H]1O)C1CC[C@]2(C)C1[C@H](O)CC1[C@@]3(C)CC[C@H](O)C(C)(C)C3[C@@H](O)C[C@]12C (stereo partly drawn)	-1.7	5.6	.	-0.5	1.7	0	.
CN(CC(=O)Nc1ccc(Cl)c(C(F)(F)F)c1)C(=O)Cc1ccsc1	5.1	1.2	0.66	-6.2	1.0	-1	.
COC(=O)c1sccc1NC(=O)c1c(-c2ccccc2)noc1C	5.3	-0.8	0.72	-1.1	0.8	-5	.
NC(=O)NC(=O)CSc1nc(C2CCCCC2)n(-c2ccccc2)n1	1.7	-0.7	0.71	-2.3	-0.7	-16	1%
CCOC(=O)CNc1cccc(C(F)(F)F)c1	0.4	1.4	0.68	5.0	0.3	0	-4%
CCN(CC)CCNC(=O)c1ccc(Cl)c(S(=O)(=O)Nc2ccccc2OC)c1	0.0	-2.6	0.72	-2.7	0.3	-3	3%
CCn1c(CC(=O)Nc2ccc(F)cc2)nnc1SCC(=O)N1CCOCC1	.	1.2	.	-4.2	-0.2	2	.
CCC1CCCCN1CCCNC(=O)c1ccc2c(c1)N(Cc1ccc(F)cc1)C(=O)c1ccccc1S2=O (stereo not drawn)	3.5	-0.9	0.63	-4.2	0.8	23	.
Cc1ccc(C)n1-c1ccc(-c2nnco2)cc1	.	4.0	.	-8.8	2.8	10	20%
N#C/C(=C\c1c[nH]c2ccc(Br)cc12)c1ccccn1	0.2	1.7	0.69	-2.1	1.8	20	23%
CC(C)c1ccc(Oc2cccc3c2S(=O)(=O)N(C2CCCC2)CC(COCc2ccccc2)O3)cc1 (stereo not drawn)	.	-0.9	.	.	.	1	-4%
CC1CCCC(C)N1C(=O)COc1ccc(C(=O)Nc2ccccc2N2CCOCC2)cc1 (stereo not drawn)	4.4	3.0	0.69	2.9	0.3	2	-4%
COc1ccc(O)c(C(=O)c2cnc3c(c2)c(=O)[nH]c(=O)n3C)c1	2.3	0.5	0.69	-0.4	0.6	6	.
Cn1c(=O)c(=O)n(C)c2cc(S(=O)(=O)N3CCCCC3)ccc21	-1.9	-2.6	0.72	-2.9	0.2	-1	14%
CSc1ccccc1-c1nc(-c2ccncc2)no1	3.1	4.8	0.69	-1.0	-4.4	-1	-14%
O=C(CC(NS(=O)(=O)c1ccc(Cl)cc1)c1ccco1)N1CCc2ccccc21 (stereo not drawn)	2.5	-0.5	0.68	-0.9	-0.9	-17	0%
O=S(=O)(c1ccc2ccccc2c1)N1CCN(Cc2ccccn2)CC1	3.5	-2.3	0.7	2.9	0.4	-7	.
O=C(COC(=O)C1(c2ccccc2)CC1)NNC(=O)c1ccccc1	2.3	3.0	0.71	0.0	0.1	0	-1%
COc1cccc(OCCOCCN(C)CCO)c1	-1.5	-0.5	0.7	4.6	-0.1	-52	4%
Cc1cc(O)c(/C=N/Nc2cccc(Cl)c2)c(=O)o1	.	-1.7	.	.	-5.2	4	11%
Cn1cccc1C(=O)NCc1ccc(Cl)cc1	1.3	4.3	0.61	2.9	-0.6	0	.
CC(=O)CCC(=O)OCC(=O)c1ccc(C(F)(F)F)cc1	18	-1.0	0.62	0.5	0.0	-7	.
COc1ccc(/C=C(/NC(=O)c2ccc(C)cc2)C(=O)NCC2CCCO2)cc1 (stereo not drawn)	3.1	-4.3	0.71	3.3	0.0	-3	20%
CC1CCN(Cc2cc(=O)oc3cc4c(cc23)CCCC4)CC1	-1.2	-6.3	0.65	0.6	0.3	1	-8%

(cont.)
SMILES	UCH37 inh	HNF4A DNA FP	Ecoli growth	LANA-H2B inh	A1 inh	Beta2AR agonist	Vif A3G
CN=C1SC(CC(=O)Nc2c(C)cccc2C)C(=O)N1/N=C/c1cccs1 (stereo not drawn)	.	-0.6	.	4.6	0.3	-2	-6%
COc1cc(SC)ccc1C(=O)OCC(=O)NCCC1=CCCCC1	2.1	-2.9	0.59	0.6	-0.5	-2	4%
COc1cccc(CNCCO)c1OCc1ccccc1Cl	1.0	3.3	0.65	2.3	-0.1	-4	.
COc1ccc(CNC(=O)N2CCN(c3ccc(F)cc3)CC2)cc1	2.9	0.4	0.66	2.6	-0.3	3	.
COc1ccccc1N1CC(C(=O)NCC2COc3ccccc3O2)CC1=O (stereo not drawn)	1.2	0.8	0.71	6.0	0.7	-8	.
Cc1cc(=O)n2nc(N3CCC(C(=O)NCc4ccc(Cl)cc4)CC3)sc2n1	0.1	8.5	0.7	-1.2	-0.2	-5	.
O=C(Nc1cccnc1)c1ccc(COc2ccccc2Br)o1	1.9	1.5	0.65	-2.6	-0.8	2	4%
CCOc1ccccc1NC(=O)c1cccc(NC(=O)CC(c2ccccc2)c2ccccc2)c1	0.8	2.8	0.7	3.8	1.1	-3	-1%
Cc1c(C(=O)Oc2cccc3cccnc23)oc2ccccc12	5.1	3.5	0.68	-1.8	?	1	-3%
O=[N+]([O-])c1cc(C(F)(F)F)ccc1NN=C1CCCC1	.	1.3	.	0.2	0.8	-1	-4%
Cc1oc2cc(OC(=O)c3ccco3)ccc2c(=O)c1-c1nc2ccccc2n1C	-56	-0.5	0.7	-4.0	0.6	-4	0%
NC(=O)CC(NC(=O)Cc1ccc(Cl)cc1)c1ccc(NCCOc2ccccc2)c([N+](=O)[O-])c1 (stereo not drawn)	0.8	7.5	0.71	1.3	0.3	-13	.
COc1ccccc1OCC(=O)N/N=C/C=C/c1ccc([N+](=O)[O-])o1	.	0.6	.	.	-0.1	13	9%
C=CCn1c(SCc2nc3scc(-c4ccccc4)c3c(=O)[nH]2)nnc1-c1ccccc1F	1.5	5.9	0.64	0.6	0.2	0	.
CC(Oc1ccc(S(=O)(=O)N2CCCC2)cc1[N+](=O)[O-])C(=O)N(C)c1ccccc1 (stereo not drawn)	2.7	-0.2	0.66	4.1	-0.7	-1	2%
C=CCNC(=O)COC(=O)c1c2c(nc3ccccc13)CCC2	-8.1	-9.3	0.66	4.2	-0.3	-3	18%
CCO[C@H]1OC(C(=O)N2CCOCC2)=C[C@@H](c2ccccc2)[C@@H]1CCCO	1.3	-1.9	.	0.1	-0.5	4	.
Cc1cc(C)nc(SCc2cc(=O)c(OC(=O)c3cc([N+](=O)[O-])ccc3Cl)co2)n1	5.6	-3.6	0.7	3.9	0.5	22	24%

Record cards (already shown). Order of values: UCH37 inh | HNF4A DNA FP | Ecoli growth | LANA-H2B inh | A1 inh | Beta2AR agonist | Vif A3G
`Cc1cc(=O)n2nc(N3CCC(C(=O)NCc4ccc(Cl)cc4)CC3)sc2n1` is entered as 0.1 | 8.5 | 0.7 | -1.2 | -0.2 | -5 | .
`CN=C1SC(CC(=O)Nc2c(C)cccc2C)C(=O)N1/N=C/c1cccs1` (stereo not drawn) is entered as . | -0.6 | . | 4.6 | 0.3 | -2 | -6%
`COc1ccc(CNC(=O)N2CCN(c3ccc(F)cc3)CC2)cc1` is entered as 2.9 | 0.4 | 0.66 | 2.6 | -0.3 | 3 | .

Compound activity (PubChem)
